miR-21 FLuc – raises the signal of a miR-21 reporter. Potency, µM (doses to about 38.3 µM), for the others: top-dose reporter change, positive = more light. HeLa miR-21 FLuc reporter, luciferase, 48 h. AID 2288. 340,000 tested, under 10 active; active = well fitted rising curve with a large enough effect; inconclusive = small, poorly fitted or top-dose-only effect; inactive = no such curve, though single readings can be large or run the other way;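 note: % of control where 0% means no effect; miR-21 action dims this reporter so a rising signal means less miR-21 action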
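HeLa miR-21-FLuc reporter line, endogenous miR-21; 2000 cells/well in DMEM/10% FBS; compound titration up to ~40uM final, 48 h, 37 degree Celsius; luciferase detection reagent, 15 min lysis, CCD luminescence.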
Rango dissoc inh – prevents RanGTP from dissociating the Rango-importin beta complex; 340,000 compounds, 0.071% hits; Potency, µM (top dose mostly 46.1 µM), for inactives: top-dose activity change, negative = inhibition; O95149+P62826; Biochemical FRET Rango-importin beta, RanGTP-induced dissociation; active means falling FRET ratio curve, often poorly fitted, with flat reads before Ran was added; inconclusive means other falling curves, or compound fluorescence or quenching; inactive means flat or rising ratio curve;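 note: potency is the fitted concentration of half-maximal effect; % of control where 0% means no effect; nearly all actives have a fitted effect of over 45% in size; -100% = wells without RanGTP and RCC1; the record marks most hits as doubtful in a second field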
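Quantitative HTS using a FRET biosensor: 0.1 uM Rango, 0.25 uM importin beta, 0.6 uM Ran, 2 mM GTP, 0.2 uM RCC1 final, PBS with DTT, Tween-20 and BSA. Post-read taken 45 min after Ran addition.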
GLA inh pH 4.5 – inhibitors of human alpha-galactosidase A at pH 4.5 | P06280 | purified enzyme, 4-MU-alpha-Gal fluorescence, pH 4.5 | activity change, negative = inhibition, % at 105 µM | 230,000 tested, under 10 active | AID 1467; inconclusive = small, poorly fitted or top-dose-only inhibition, or a rising curve; inactive = flat fitted curve, though single readings scatter; no compound was filed as active;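 note: 0% = full activity with enzyme and -100% = basal without enzyme; dose as in the result columns while the protocol names 77 µM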
Rango complex inh – prevents formation of the Rango-importin beta complex; Q14974; Rango CFP/YFP FRET sensor + importin beta, 45 min; Potency, µM (titrated, usually from 92.2 µM), without a hit: top-dose inhibition of complex formation; 340,000 compounds, 0.031% hits; AID 540263; active = rising FRET ratio curve, often small or poorly fitted; inconclusive = mostly compound fluorescence or quenching in the first reads; inactive = flat curves in all reads;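 note: potency is the fitted concentration of half-maximal effect; 0% = DMSO wells and 100% = buffer wells lacking importin beta; nearly all actives have a fitted effect of over 15% in size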
Target sequence (Q14974 whole entry, looked up): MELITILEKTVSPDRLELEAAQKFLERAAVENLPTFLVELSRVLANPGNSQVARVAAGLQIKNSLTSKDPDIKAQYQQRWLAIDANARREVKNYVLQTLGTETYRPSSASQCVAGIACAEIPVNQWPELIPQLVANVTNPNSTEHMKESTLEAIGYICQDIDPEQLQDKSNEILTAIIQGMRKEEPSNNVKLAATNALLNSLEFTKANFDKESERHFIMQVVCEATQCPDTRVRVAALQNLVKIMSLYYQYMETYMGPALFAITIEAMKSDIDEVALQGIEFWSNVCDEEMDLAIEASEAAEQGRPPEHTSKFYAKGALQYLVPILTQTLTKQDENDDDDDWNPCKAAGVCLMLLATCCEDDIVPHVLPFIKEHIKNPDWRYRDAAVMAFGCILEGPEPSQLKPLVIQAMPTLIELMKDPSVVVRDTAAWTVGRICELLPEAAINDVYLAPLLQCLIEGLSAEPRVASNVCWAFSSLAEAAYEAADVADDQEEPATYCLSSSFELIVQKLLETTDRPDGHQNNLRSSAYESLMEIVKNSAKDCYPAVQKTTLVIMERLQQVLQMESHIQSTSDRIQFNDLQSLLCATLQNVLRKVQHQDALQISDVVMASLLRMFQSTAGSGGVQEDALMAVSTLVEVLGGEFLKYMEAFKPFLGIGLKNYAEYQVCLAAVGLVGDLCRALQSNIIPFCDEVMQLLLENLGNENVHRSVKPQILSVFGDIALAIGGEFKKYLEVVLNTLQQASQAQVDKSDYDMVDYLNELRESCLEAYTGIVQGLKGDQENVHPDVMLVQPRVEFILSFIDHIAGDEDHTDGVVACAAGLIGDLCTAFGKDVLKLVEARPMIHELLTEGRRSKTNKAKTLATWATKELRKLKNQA
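Inhibition scored from the CFP 486 nm/YFP 530 nm FRET ratio 45 min after adding 0.125 microM importin beta to 50 nM Rango biosensor preincubated 5 min with compound (room temperature, PBS with DTT, Tween-20, BSA). No-importin wells as positive control.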
The depositor's hits bear a star; u = inconclusive; x = no result given; & = joins results of further samples; [ ] = dose if it differs, or a comment.

SMILES	miR-21 FLuc	Rango dissoc inh	GLA inh pH 4.5	Rango complex inh
CC(C)CC(c1nnnn1Cc1ccccc1)N1CCC(C(N)=O)CC1 (stereo not given)	-6%	0%	2	u
CN(CC(=O)Nc1ccc(F)c(F)c1F)C(=O)CC1CCCCC1	x	-9%	x	u
CCc1ccccc1NC(=O)COC(=O)C1CC(=O)N(c2ccc(F)cc2)C1 (stereo not given)	-7%	-5%	1	-2.2%
O=C(NCc1ccco1)c1cc(C(=O)C2CCCCC2)c[nH]1	-7%	5%	-3	3.5%
O=C(Nc1ccccc1)N1CCCN(c2nccc(C(F)(F)F)n2)CC1	-3%	-1%	-6	-1.7%
CC(C)c1ccccc1NS(C)(=O)=O	2%	x	-1	x
Cc1cc(=O)n2c3ccccc3n(CC(O)CN3CCCC3)c2c1C#N (stereo not given)	-5%	-6%	-1	-4.4%
CCCN(CCC)Cc1c(C(=O)N/N=C/c2ccc(Br)cc2)nnn1-c1nonc1N	-8%	0%	x	-2.6%
CC(=O)Nc1ccc(NC(=O)N(c2ccccc2)c2ccccc2)cc1	0%	0%	x	-8.3%
COc1ccc(OC2OC3COC(c4ccco4)OC3C(O)C2NC(C)=O)cc1 (stereo not given)	-11%	-10%	-5	u
CCOC(=O)c1[nH]c2ccc(F)cc2c1NC(=O)CN1CCc2cc(OC)c(OC)cc2C1	15%	x	-3	x
Cc1cc(C)c(NC(=O)CS(=O)CC(=O)N2CCN(c3ccccc3)CC2)c(C)c1 (stereo not given)	4%	6%	7	4.0%
CNc1nc(Oc2ccc(=O)n(C)n2)nc(N2CCOCC2)n1	-13%&-1%	-5%	-5	3.6%
COc1ccc(-c2ccc(CCC(=O)O)n2C(C)C)cc1	-4%	-26%	7	u
COc1ccccc1OCCC(=O)OCC(=O)Nc1cccc(Br)c1	-7%	-8%	-7	-4.0%
CC12CCC3C(CCC4N(CCO)CCC34C)C1CCC2O (stereo not given)	4%	-22%	x	u
O=C(Nn1cnc2ccccc2c1=O)c1ccc(Cl)c([N+](=O)[O-])c1	-2%	-1%	x	-2.0%
COc1ccc(C(=O)O)cc1S(=O)(=O)Nc1ccc2cn[nH]c2c1	x	-2%	x	2.8%
COc1ccccc1C(=O)NC(=O)COC(=O)c1nc(Cl)ccc1Cl	x	7%	x	8.1%
COc1ccccc1CC(NC(C)=O)C(=O)NC1CCN(C(=O)Nc2ccc(F)cc2)CC1 (stereo not given)	0%	-8%	x	0.1%
CO/N=C/NC(=O)C1=NOC(CNc2ncc(C(F)(F)F)cc2Cl)C1 (stereo not given)	-17%	11%	7	-1.2%
Cc1ccc(F)c(C2=CC(=O)C[C@H](c3ccc(F)cc3)C2)c1	x	1%	x	1.0%
Cc1cc(C(=O)Cn2nnc(-c3ccc(Cl)cc3)n2)c(C)n1-c1ccccc1	-4%	-19%	6	0.0%
O=C(COC(=O)C1=NN(c2ccccc2)C(=O)CC1)Nc1ccc([N+](=O)[O-])cc1C(F)(F)F	x	19%	x	2.6%
CCOc1cc(C(=O)N2CCCN(C)CC2)cc(OCC)c1OCC	-3%	8%	x	4.1%

Arranged by the number under Rango complex inh (falling): 7 from the list above
compound | miR-21 FLuc | Rango dissoc inh | GLA inh pH 4.5 | Rango complex inh
COc1ccccc1C(=O)NC(=O)COC(=O)c1nc(Cl)ccc1Cl | x | 7% | x | 8.1%
CNc1nc(Oc2ccc(=O)n(C)n2)nc(N2CCOCC2)n1 | -13%&-1% | -5% | -5 | 3.6%
O=C(NCc1ccco1)c1cc(C(=O)C2CCCCC2)c[nH]1 | -7% | 5% | -3 | 3.5%
CO/N=C/NC(=O)C1=NOC(CNc2ncc(C(F)(F)F)cc2Cl)C1 (stereo not given) | -17% | 11% | 7 | -1.2%
O=C(Nn1cnc2ccccc2c1=O)c1ccc(Cl)c([N+](=O)[O-])c1 | -2% | -1% | x | -2.0%
CCc1ccccc1NC(=O)COC(=O)C1CC(=O)N(c2ccc(F)cc2)C1 (stereo not given) | -7% | -5% | 1 | -2.2%
CCCN(CCC)Cc1c(C(=O)N/N=C/c2ccc(Br)cc2)nnn1-c1nonc1N | -8% | 0% | x | -2.6%

Next section:
SMILES	miR-21 FLuc	Rango dissoc inh	GLA inh pH 4.5	Rango complex inh
Cc1c(NC(=O)C(C)OC(=O)CCC2CCCC2)c(=O)n(-c2ccccc2)n1C (stereo not given)	0%	1%	13	6.8%
CC(CCN1CCC(n2nccc2NC(=O)c2ccccc2Cl)CC1)c1ccccc1 (stereo not given)	-1%	-14%	x	u
COc1ccc(N2CCN(C(=O)C3Cc4ccccc4CN3C(=O)c3ccccc3)CC2)cc1 (stereo not given)	-48%	-8%	2	u
CCOC(=O)c1cc2c(=O)n3ccccc3nc2n(Cc2ccccc2Cl)c1=N	-2%	x	13	x
Cc1ccc2cc(C#N)c(N3CCN(C(=O)c4cccs4)CC3)nc2c1	3%	0%	x	1.5%
CN(C(=O)COC(=O)c1ccc2[nH]c3c(c2c1)CCCC3)C1CCS(=O)(=O)C1 (stereo not given)	-14%	u	0	u
CCc1noc(C)c1C(=O)NCCc1ccc(S(N)(=O)=O)cc1	x	-2%	x	-0.3%
COC(CC(=O)NNC(=S)Nc1ccccc1)OC	-1%	-6%	0	0.6%
COC(=O)c1ccc(CSc2ccccc2C)o1	25%	-1%	x	1.3%
CC1CC(C(=O)Nc2ccccc2)C(=O)O1 (stereo not given)	x	17%	x	-0.5%
CC(C)(O)[C@@H]1Cc2c(ccc3ccc(=O)oc23)O1	-12%	10%	5	5.5%
CNCC(O)COc1ccccc1 (stereo not given)	-4%	10%	-3	-2.2%
Cc1ccc(Cn2ccsc2=NC(=O)CCl)cc1	u	-8%	1	-2.6%
O=c1c2c(nc3nc(NCc4ccccc4Cl)[nH]n13)CCC2	-3%	x	-4	x
O=C(Nc1ccc2ccccc2n1)c1ccccc1	-18%	38%	x	-2.9%
CN1CCN(CC(=O)c2cc(C(C)(C)C)c(O)c(C(C)(C)C)c2)CC1	1%	-1%	x	-4.0%
O=C(Nc1ccccn1)c1c(O)c2cccc3c2n(c1=O)CCC3	-4%	-4%	4	-1.2%
Cc1ccc(S(=O)(=O)NN2C(=O)c3ccccc3NC2C)cc1 (stereo not given)	-9%	-11%	9	-0.8%
Nc1nc(CSc2nc3ccccc3s2)nc(Nc2ccccc2)n1	12%	x	0	x
Cc1c(C(=O)C(=O)NCCc2ccc(S(N)(=O)=O)cc2)c2ccccc2n1C	0%	20%	6	1.9%
O=C(Nc1cccc(F)c1)[C@@H]1CCCN1	4%	-13%	x	5.6%
Cc1ncoc1C(=O)Nc1cccc(Cl)c1	-39%	-1%	-4	-1.0%
CCN(CC)c1nc(N2CCOCC2)nc2ccccc12	3%	u	x	u
CCOC(=O)N1CCC(N2CCN(C3CCCC3)C(CCO)C2)CC1 (stereo not given)	0%	-7%	-22	-3.2%
CC12CC(=O)C3C(CCC4=CC(=O)CCC43C)C1CC=C2CC(=O)O (stereo not given)	x	-3%	x	1.3%

Further records follow.
SMILES	miR-21 FLuc	Rango dissoc inh	GLA inh pH 4.5	Rango complex inh
CCN1C(=O)c2cccc3c(S(=O)(=O)Nc4ccccc4)ccc1c23	-16%	u	-26	u
COc1ccccc1CNC(=O)[C@H](Cc1c[nH]c2ccccc12)NC(=O)[C@@H]1Cc2ccccc2CN1	-3%	9%	x	-0.1%
Cc1cccc(-c2nc3ccccc3c(=O)n2N)c1	-3%	13%	x	-1.2%
O=C(NCC1CCN(c2ccc(S(=O)(=O)N3CCOCC3)cc2)CC1)Nc1ccccc1	2%	5%	x	1.5%
O=C(CN1CCN(c2ccccc2)CC1)Nc1ccccc1C(F)(F)F	-3%	-5%	-7	1.2%
Cc1cc(C)nc(N(C#N)CN2C(=O)c3ccccc3S2(=O)=O)n1	0%	-19%	1	1.4%
Cc1ccc(Cn2c(O)c(N=NC(=S)Nc3ccccc3F)c3ccccc32)cc1	-1%	-11%	-18	1.1%
O=[N+]([O-])c1cc([N+](=O)[O-])c(N2CCCCCC2)cc1NCCO	-4%	-13%	5	-1.3%
N#CCC(=O)Nc1ccc(C(=O)OCC(=O)c2ccc3c(c2)NC(=O)CO3)cc1	x	-9%	x	u
CC1CCN(C(=O)Cn2nnnc2CN2CCOCC2)CC1	-2%	-2%	x	-4.1%
O=C(CCN1C(=O)S/C(=C/c2ccccc2)C1=O)Nc1ccc(O)c(C(=O)O)c1	2%	2%	x	1.4%
Cc1csc(Nc2ccc(Cl)cc2)n1	-63%	15%	u	-1.1%
C/C(=N\NC(=O)c1cccs1)c1ccncc1	-59%	-9%	x	-1.1%
O=C(Cc1ccc(-c2ccccc2)cc1)Nc1ccccc1	-19%	0%	x	-5.7%
O=C(CCCN1C(=O)/C(=C/c2cccs2)SC1=S)NNC(=O)c1cccnc1	7%	-5%	2	0.0%
O=C(NCC(=O)N1CCN(Cc2ccccc2)CC1)c1ccc(Cl)cc1	24%	9%	x	-2.7%
O=C(CCCn1c(=O)c2cccn2c2cccnc21)NCc1cccc(Br)c1	-5%	u	x	u
CC(C)c1noc2ncc(C(=O)c3cc(Cl)cc(Cl)c3O)cc12	0%	6%	-3	-0.4%
Cc1ccc(-n2cccc2/C=C2\C(=N)N3N=C(C(C)C)SC3=NC2=O)cc1	1%	-23%	-8	-2.3%
O=C(Nc1ccccc1)c1ccc(F)cc1F	x	-15%	x	0.5%
Cc1cc(C)cc(N(CC(=O)NC2CCC(C)CC2)S(=O)(=O)c2c(C)noc2C)c1 (stereo not given)	-4%	-18%	3	0.1%
COc1ccc(NS(=O)(=O)c2ccc3c(c2)n(C)c(=O)n3C)cc1	5%	8%	-4	-3.1%
Cc1ccc(C(=O)NN2CCOCC2)cc1	2%	u	0	1.4%
Cc1nn(-c2ccccc2)c2c1C(c1cccs1)C(C#N)=C(N)O2 (stereo not given)	5%	0%	-12	2.0%
O=C(Nc1ccncc1)c1cccs1	7%	3%	-1	5.1%

(further entries)
SMILES	miR-21 FLuc	Rango dissoc inh	GLA inh pH 4.5	Rango complex inh
CCCC1=[N+](CC)CCn2c(C)ccc21	-1%	0%	-2	7.4%
O=C(O)C(Oc1ccc2c3c(c(=O)oc2c1)CCC3)c1ccccc1 (stereo not given)	-1%	5%	-2	1.0%
O=C(NC(=S)NCc1ccco1)c1ccccc1[N+](=O)[O-]	x	-1%	x	-6.6%
COc1ccc(N(CC(=O)N/N=C/c2ccc3c(c2)OCO3)S(=O)(=O)c2ccc(NC(C)=O)cc2)cc1	3%	0%	-5[21.1 µM]	2.3%
NC(=O)c1cc2ccccc2o/c1=N\NC(=O)c1ccco1	-8%	4%	-21	-1.4%
COc1ccc(C)cc1C1=CC(=O)C[C@H](c2ccc(F)cc2)C1	x	20%	x	1.4%
CCOc1ccc(C(=O)CCN2CCOCC2)cc1	-1%	0%	x	3.3%
COc1ccc(NC(=O)CN(C)C(=O)C2CC(=O)N(c3cccc4ccccc34)C2)cc1 (stereo not given)	x	12%	x	-1.5%
COc1ccccc1CNC(=O)[C@@H]1CCCN1S(=O)(=O)c1ccccc1F	0%	13%	x	0.1%
C=CCN=C(NC#N)SCC(=O)NC(C)(C)C	1%	7%	3	0.5%
O=C(N/N=C/c1cc(Br)ccc1O)c1cccc(N2CCCC2=O)c1	11%	u	1	u
Cc1ccc(CSCCNC(=O)CN(c2cc(C)ccc2C)S(C)(=O)=O)cc1	5%	3%	-8	1.2%
O=c1cc(N2CCCC2)[nH]c(=O)n1-c1ccc(Cl)cc1	-31%	40%	2	-3.2%
O=C(N/N=C1/CC2C=CCC12)c1ccc(Br)o1 (stereo not given)	-51%	12%	1	u
O=C1COc2ccc(S(=O)(=O)Nc3ccc(OC(F)(F)F)cc3)cc2N1	8%	7%	x	0.7%
Cc1ccc2nc(-c3ccccc3Cl)cc(C(=O)Nc3cc(C)on3)c2c1	7%	13%	-4	0.1%
CS(=O)(=O)N1CCC(C(=O)NCc2ccc3c(c2)OCO3)CC1	0%	0%	6	-1.2%
CCCNC(=O)Cn1cc(S(=O)(=O)N2CCCC2)c(S(=O)(=O)N2CCCC2)c1	-1%	-7%	x	4.0%
CCOc1cc2c(cc1/C=C(/C#N)c1ccc(C(=O)O)cc1)OCO2	1%	u	0	u
COc1ccc(CNc2ncc(-c3cccc([N+](=O)[O-])c3)n2C)c(OC)c1OC	4%	3%	x	-0.1%
Cc1cscc1NC(=O)/C=C/C(=O)O	-10%	15%	-7	-0.2%

These rows are one share of the data (hit frequency here may not be typical).
